# Screening data as filed in PubChem BioAssay.
# S aureus helic – S. aureus DNA helicase inhibition. purified S. aureus helicase, fluorescence unwinding assay; about half of the hits fall short of the stated cut. inhibition, %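 (tested at about 80 µM)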. 120,000 compounds, 0.05% hits. AID 485395;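 active means both duplicates at 50% or more, or one of them with a favoured structure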;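 further: 0% = mean of negative control wells and 100% = mean of positive control wells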
# MgrA-DNA mod – S. aureus MgrA-DNA binding modulation | fluorescence polarization | inhibition, %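 (about 10 µg/mL by stock and volumes)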 | 84,000 compounds, 0.13% hits | AID 602314;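 active means above 50% in either of two replicates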;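 further: 0% = protein plus DNA without compound and 100% = DNA alone without protein; higher means less MgrA bound to DNA so lower polarization; one replicate is shown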
# An asterisk follows results filed as active; . = not tested or not shown. This is a subset. The share of hits here may be higher or lower than overall.
SMILES,S aureus helic,MgrA-DNA mod
COc1ccc(CCNC(=O)C2CCCO2)cc1OC (stereo not drawn),.,0.7
CC(C)(CNC(=O)c1cc(=O)[nH]c2ccccc12)N1CCOCC1,-12.0,.
CCOC(=O)c1sc(N2N=C(C)/C(=C\c3ccco3)C2=O)nc1C,8.0,3.7
COc1ccc(-n2cc(C(=O)NCCN3CCc4ccccc4C3)c3ccccc3c2=O)cc1,6.0,4.0
O=C1C2C=CC=CC2=NC(=S)[N+]1=Nc1c(O)[nH]c2ccccc12 (stereo not drawn),11.0,-0.9
O=C(c1ccccc1)n1cnc2ccccc21,2.0,-2.3
CCc1cc(=O)oc2c(C)c(OC)ccc12,5.0,2.0
COC(=O)c1ccc(C(=O)Nc2cc(Cl)ccc2Cl)cc1N,17.0,0.5
COc1ccc(-c2cc(C(=O)N3CC(C)OC(C)C3)c3ccccc3n2)cc1OC (stereo not drawn),6.0,.
CN(C)S(=O)(=O)c1ccc(C(=O)NCC2CCCO2)cc1 (stereo not drawn),-10.0,.
Cc1sc2c(c1C)CN(C(C)(C)C)CN2C(=O)c1ccccc1,8.0,0.3
O=c1[nH]cnc(O)c1Cc1c(O)nc[nH]c1=O,16.0,0.8
NC(=O)COC(=O)/C=C/c1ccc(Cl)cc1,0.0,.
COc1ccccc1/C=C1\CS/C(=C\c2ccccc2OC)C1=O,-2.0,0.2
Nc1nc2c(c(=O)[nH]1)C(c1ccccc1)C1=C(N2)c2ccccc2C1=O (stereo not drawn),15.0,-2.0
Cc1c(C)n(Cc2ccccc2)c2ccc(C(=O)OCCN3CCOCC3)cc12,18.0,-0.6
Cc1cc(C)cc(NC(=O)Cn2c(=O)oc3cc(S(=O)(=O)N4CCCCCC4)ccc32)c1,-24.0,.
CC(=O)Nc1ncc2c(n1)CC(c1ccccc1)CC2=O (stereo not drawn),5.0,1.8
COc1ccc(CCNC(=O)Cn2c(SCc3ccc(C)cc3)nc3cccnc32)cc1OC,-4.0,0.6
COc1ccc(C2=NN(C(=O)c3cccnc3)C(c3ccccc3O)C2)cc1 (stereo not drawn),5.0,.
COC(=O)C1c2sc(=O)[nH]c2SC2C(=O)N(c3ccc(Br)cc3)C(=O)C21 (stereo not drawn),0.0,.
C(=N\n1cnnc1)/c1nc2ccccc2n1Cc1ccccc1,1.0,-0.2
COc1ccc(S(=O)(=O)N(C)c2ccc(OCC(=O)Nc3cc(C)on3)cc2)cc1,10.0,.
CCOC(=O)c1nnn2c1nc(SCC(N)=O)c1ccccc12,.,0.7
COc1ccc(C(c2nnnn2CC2CCCO2)N2CCN(c3ccc(F)cc3)CC2)cc1OC (stereo not drawn),23.0,-1.2
SMILES,S aureus helic,MgrA-DNA mod
COc1ccc2c(c1)CCc1sc(NC(=O)c3ccco3)nc1-2,13.0,.
CCn1c(C(=O)O)c(CC(=O)NC2CCCCCC2)c2ccccc21,-6.0,0.4
COc1ccc(CNc2nc3nc4c(c(=O)n3[nH]2)CCC4)cc1OC,-1.0,0.8
Nc1ccc2nc(SCc3ccccc3Cl)sc2c1,9.0,0.1
O=C(N=S1CCN(c2ncc(C(F)(F)F)cc2Cl)CC1)Nc1ccc(Cl)cc1,6.0,.
CN(C(=O)c1cc(Cl)cc(Cl)c1)C1CCCCC1,.,0.6
Cn1cc(CC(=O)NC2CCCCC2)c2ccccc21,-1.0,.
O=C1CC(n2nnnc2-c2ccccc2)C2COC1O2 (stereo not drawn),16.0,0.2
Cc1ccccc1NC(=O)c1cc2ccccc2cc1O,4.0,5.7
Nc1nonc1C(=O)OCC(=O)N1CCOCC1,1.0,-1.9
COc1ccc(C(=O)NC(C(=O)N2CCN(c3ccccc3O)CC2)C(C)C)cc1 (stereo not drawn),3.0,.
Fc1ccc(NC(=S)N2CCCCC2CCN2CCOCC2)cc1 (stereo not drawn),.,1.9
O=C(Oc1cccc(-c2cnc3ccccc3n2)c1)c1ccco1,-22.0,.
O=S(=O)(c1cccc(C(F)(F)F)c1)N(CCCN1CCOCC1)Cc1cccs1,-9.0,-1.9
CC1CCCC(NC(=O)Cn2c(-c3cccs3)cc3ccccc32)C1C (stereo not drawn),-7.0,0.5
O=C(COc1ccccc1)OCc1ccccc1F,3.0,-1.5
Cc1nc2c([nH]1)C(c1ccc(C(C)C)cc1)C(C#N)=C(C#N)O2 (stereo not drawn),11.0,-2.0
CNC(=O)Cc1nc2ccccc2[nH]1,-6.0,1.8
NC(=O)c1sc2c(c1N)C(c1ccc(Cl)cc1)C1=C(N2)c2ccccc2C1=O (stereo not drawn),2.0,1.4
CC1CCN(C(=O)c2ccc(S(=O)(=O)N(C)C)cc2)C(C)C1 (stereo not drawn),26.0,1.2
CCOc1ccccc1NC(=O)c1cc(=O)c2ccccc2o1,-5.0,.
CSCCC(C(=O)O)N1C(=O)CSC1=S (stereo not drawn),2.0,.
Cc1ccc(S(=O)(=O)NC2CCCCC2)c2nsnc12,3.0,-4.0
COc1cccc(N2CCN(C(=O)c3nn(C)c4c3COc3ccccc3-4)CC2)c1,-27.0,.
CC(C(=O)N1CCCCC1)N(c1ccccc1)S(C)(=O)=O (stereo not drawn),-8.0,0.2

# Sorted by value in S aureus helic (highest first): three from the list above.
SMILES,S aureus helic,MgrA-DNA mod
Nc1ccc2nc(SCc3ccccc3Cl)sc2c1,9.0,0.1
COc1ccc(C(=O)NC(C(=O)N2CCN(c3ccccc3O)CC2)C(C)C)cc1 (stereo not drawn),3.0,.
Cn1cc(CC(=O)NC2CCCCC2)c2ccccc21,-1.0,.

# Next section
SMILES,S aureus helic,MgrA-DNA mod
Cc1c(-c2ccn[nH]2)nnn1-c1cc(Cl)ccc1Cl,.,-4.2
Cc1oc(-c2ccc(Cl)cc2)nc1CSc1nc2ccncc2[nH]1,10.0,.
Cc1[nH]c(=O)[nH]c(=O)c1S(=O)(=O)N1CCCc2ccccc21,-2.0,-0.5
CC1CCC(C(C)C)C(OC(=O)CSc2nccc(=O)[nH]2)C1 (stereo not drawn),-9.0,.
CCCCc1nnc(NC(=O)CSc2nc(O)c(NC(C)=O)c(=O)[nH]2)s1,19.0,7.7
Cc1sc[n+](CC(=O)c2ccc(Br)cc2)c1C,16.0,.
O=C(CN1C(=O)CCC1=O)Nc1ccccc1-c1nc2ccccc2o1,2.0,.
O=C(CSCc1ccco1)Nc1cc(C(F)(F)F)ccc1Cl,1.0,.
CC(C)N1CC(O)=C(c2nc3ccccc3[nH]2)C1=N,-6.0,.
Cc1cc(OCC(O)CN2CCCCC2C)cc(C)c1Cl (stereo not drawn),-28.0,.
Cc1cc(C(=O)Cn2cnc3ccsc3c2=O)c(C)n1CCC1=CCCCC1,-3.0,.
CCN(Cc1ccccc1)C(=O)Cn1cc2c(n1)CCCCCC2,-18.0,0.6
Nc1nnc(N)c2ccccc12,-2.0,.
CC(C(=O)Nc1ccc(S(=O)(=O)N2CCCC2)cc1)N1CCc2ccccc2C1 (stereo not drawn),2.0,.
Cc1ccc(C(=O)Cn2cncn2)cc1,14.0,.
COC(=O)c1c(-c2ccc(OC)c(OC)c2)csc1NC(=O)C1CC1c1ccccc1 (stereo not drawn),11.0,-0.7
CCc1ccc(N2COc3ccc4cc(C(=O)OC)c(=O)oc4c3C2)cc1,7.0,-0.3
N#CC(C#N)=CNc1nn(-c2ccccc2)cc1C#N,4.0,.
Cc1cc(C)cc(Oc2c(F)c(F)c(F)c(F)c2F)c1,14.0,-0.7
CCOC(=O)c1c(NC(=O)C(C)Sc2nnc(CNC(=O)c3ccco3)n2-c2cc(C)ccc2C)sc2c1CCC2 (stereo not drawn),-7.0,.
Cc1nn(-c2ccccc2)c2sc(C(=O)N3CCN(C(=O)c4ccccc4)CC3)cc12,10.0,.
Brc1ccc(-c2ccc(Br)s2)s1,.,-0.4
Cc1ccccc1C(=O)N1CCC(C(=O)NC2CCCCCC2)CC1,-1.0,-0.3
CC(=O)N/C(=C\c1ccccc1)C(=O)NCC1CCCO1 (stereo not drawn),-25.0,.
CCOC(=O)c1ccc(Oc2nc(N(C)C)nc(N3CCOCC3)n2)cc1,16.0,.

# Compound profiles, from the list above. Order of values: S aureus helic, MgrA-DNA mod
# Cc1cc(OCC(O)CN2CCCCC2C)cc(C)c1Cl (stereo not drawn) across the screens: -28.0, .
# Cc1nn(-c2ccccc2)c2sc(C(=O)N3CCN(C(=O)c4ccccc4)CC3)cc12 across the screens: 10.0, .

# More records follow.
SMILES,S aureus helic,MgrA-DNA mod
Cc1ccc([N+](=O)[O-])c(C(=O)N(CCc2ccccn2)c2ccccc2)c1,.,-3.2
Cc1n[nH]c(=O)c2c(NC(=O)COC(=O)C3CC4CCCC(C3)C4=O)oc(C)c12 (stereo not drawn),21.0,.
CC(C)(Oc1ccc(Cl)cc1)C(=O)Nc1cccc(-c2nn3cnnc3s2)c1,2.0,0.4
Clc1cc(Cl)c2c(c1)C=C1CCCCC1(N1CCCC1)O2 (stereo not drawn),.,-2.0
CCOC(=O)c1cnc2c(S(=O)(=O)C(C)C)csc2c1Sc1ccc(Cl)cc1,.,-1.1
O=C(COC(=O)c1c2c(nc3ccccc13)CCCC2)c1ccco1,-12.0,.
Cc1ccc2oc(=O)c3cnn(CC(=O)N(C)Cc4ccccc4)c3c2c1,6.0,-0.7
O=C1CCSC2=C1CS(=O)(=O)c1ccc(Cl)cc12,-5.0,.
COc1ccc(CCCOC(Cn2ccnc2)c2ccc(OC)cc2)cc1 (stereo not drawn),.,-0.9
CCc1ccc(N2C(=O)CSC23C(=O)N(C)c2ccccc23)cc1 (stereo not drawn),27.0,.
Cc1ccc(CC(=O)O)cc1C,6.0,.
O=C(OCc1ccccc1Cl)c1ccc2c(=O)n3c(nc2c1)CCC3,14.0,.
C=CCn1c(CCCNC(=O)C(C)(C)C)nc2ccccc21,5.0,.
CCS(=O)(=O)N1Cc2ccccc2CC1C(=O)N1CCc2ccccc21 (stereo not drawn),-5.0,.
N#CC(Nc1ccc(I)cc1)c1ccccc1 (stereo not drawn),.,-0.2
NC(=S)Nc1ccc(C(F)(F)F)cc1,.,2.7
COCCNC(=O)C1CCC(Cn2c(=S)[nH]c3ccccc3c2=O)CC1 (stereo not drawn),23.0,0.2
O=C(O)CSCC(=O)N1CCC2(CC1)OCCO2,.,-2.4
O=C(OCC(=O)N1CCN(c2ccccc2)CC1)c1ccccn1,1.0,1.5
C=CCN(CC=C)CC(O)Cn1c2c(c3cc(C)ccc31)CCCC2 (stereo not drawn),12.0,4.2
O=C(O)CCSc1cccc2cccc(C(=O)O)c12,.,-1.6
COc1ccc(C(=O)c2ccccc2)cc1CN1CCOCC1,8.0,-1.8
O=C1CCCC2=C1C(c1cccnc1)Nc1ccc3ccccc3c12 (stereo not drawn),18.0,-5.9
Cc1ccc(CNC(=O)c2cccn3c(=O)c4ccc(Cl)cc4nc23)o1,11.0,.
CSc1nsc(NC(=O)Nc2ccccc2C(F)(F)F)n1,-3.0,18.4
SMILES,S aureus helic,MgrA-DNA mod
COc1cc2c(cc1OC)C(c1ccccc1C(=O)O)=NCC2,-9.0,.
CCOc1ncccc1C(=O)N1CCN(C(c2ccccc2)c2ccccc2)CC1,20.0,.
O=C(O)/C=C1\NC(=O)c2ccccc21,19.0,-4.6
CCCCC(CC)CN1CNC(=S)NC1 (stereo not drawn),-5.0,1.1
CC(=O)N(Cc1cc2cc(C)ccc2nc1Cl)C1CCCC1,9.0,-1.6
CC(SC1=NCCN1S(=O)(=O)c1ccccc1)c1ccccc1 (stereo not drawn),14.0,.
Cc1nnc(SCC(=O)N2CCOCC2)n1/N=C/c1ccc(Cl)cc1,-6.0,.
CC(C)C(=O)Nc1cccc(Cl)c1,-2.0,-1.7
COc1ccccc1-n1ccnc1SCC(N)=O,0.0,.
O=C(NCC1OCCc2ccccc21)c1ccc(Br)cc1 (stereo not drawn),2.0,-0.2
CC1CCc2c(sc(NC(=O)c3cc4nc(-c5ccccc5)cc(C(F)(F)F)n4n3)c2C#N)C1 (stereo not drawn),9.0,-1.4
N#Cc1ccc(-c2ccc(F)cc2)n(CC(=O)N2CCC(C(N)=O)CC2)c1=O,-13.0,-0.1
CCCCOC(=O)Nc1[nH]c(C)c(C(=O)OCC)c1C,19.0,.
CCOC(=O)c1c(S(N)(=O)=O)c(C)n(-c2ccccc2)c1C,.,-3.5
O=C1c2oc3ccccc3c(=O)c2C(c2ccccc2)N1c1nccs1 (stereo not drawn),7.0,-0.5
O=C1NC(=Nc2ccccc2)S/C1=C\c1ccc(-c2ccccc2[N+](=O)[O-])o1,.,0.8
O=S(=O)(N=P(C1CCCCC1)(N1CCOCC1)N1CCOCC1)c1ccccc1,5.0,.
Cc1nc(-c2ccc(Cl)cc2)sc1-c1ccnc(SCC(=O)N(C)c2ccccc2)n1,.,-1.0
COCC(=O)Oc1c(C)cc(Br)cc1C,-2.0,2.1
Cc1cc(C)cc(N2C(=O)CC(Sc3ccccc3C(=O)O)C2=O)c1 (stereo not drawn),.,-2.5
CCOc1nc2cccc(C(=O)OC(C)OC(=O)OC3CCCCC3)c2n1Cc1ccc(-c2ccccc2-c2nn[nH]n2)cc1 (stereo not drawn),.,1.6
Cc1cccc(-n2nc(C)c(C(=O)N3CCCCC3)c2-n2cccc2)c1,4.0,.
CNC(=O)CSc1cnc2ccccc2n1,.,0.0

# Nothing new here: 7 of the compounds above.
SMILES,S aureus helic,MgrA-DNA mod
CC1CCc2c(sc(NC(=O)c3cc4nc(-c5ccccc5)cc(C(F)(F)F)n4n3)c2C#N)C1 (stereo not drawn),9.0,-1.4
N#Cc1ccc(-c2ccc(F)cc2)n(CC(=O)N2CCC(C(N)=O)CC2)c1=O,-13.0,-0.1
CCCCOC(=O)Nc1[nH]c(C)c(C(=O)OCC)c1C,19.0,.
CCOC(=O)c1c(S(N)(=O)=O)c(C)n(-c2ccccc2)c1C,.,-3.5
O=C1c2oc3ccccc3c(=O)c2C(c2ccccc2)N1c1nccs1 (stereo not drawn),7.0,-0.5
O=C1NC(=Nc2ccccc2)S/C1=C\c1ccc(-c2ccccc2[N+](=O)[O-])o1,.,0.8
O=S(=O)(N=P(C1CCCCC1)(N1CCOCC1)N1CCOCC1)c1ccccc1,5.0,.
